Yeast UUG start = modulators of yeast start codon fidelity, primary screen, whole organism, S. cerevisiae, single point, plate reader; S. cerevisiae UUG-firefly luciferase reporter, luminescence/redox ratio; actives 0.13% (n = 350,000); activity score, % at 18.7 µM;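 active = replicate mean at a twofold rise or more, about +100% in these data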;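 also: firefly luciferase made from a UUG start codon reports start codon fidelity; reporter light over untreated wells divided by growth signal over untreated wells; some hits fall short of that in this replicate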
HIV Env fusion = inhibitors of HIV-1 Env-driven cell-cell fusion, primary screen, HeLa-JRFL effector, CEM21 target cells, luciferase; inhibition, % at 12.3 µM; actives 1.1% (n = 360,000);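 active = mean replicate inhibition score of at least 50 and every replicate individually at or above 50; inconclusive = only one of the two criteria met; inactive = mean below 50 and not all replicates reaching 50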;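 also: 0% = plate neutral controls and 100% = maraviroc near 300 nM; one replicate is shown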
Active calls of the source: *; ? = inconclusive; [ ] = dose if it differs, or a comment. These rows are one share of the data; count on the stated rates, not on these rows.

SMILES	Yeast UUG start	HIV Env fusion
C[C@H](CO)N1C[C@H](C)[C@@H](CN(C)C(=O)c2ccccn2)Oc2ncc(C3=CCCC3)cc2C1=O	1.7	5.7[16.7 µM]
COCC(=O)N1[C@H](C#N)[C@@H](c2ccc(-c3cccc(F)c3)cc2)[C@@H]1CO	27.1	6.1[16.7 µM]
COc1ccc(S(=O)(=O)Nc2ccc3c(c2)C(=O)N([C@@H](C)CO)C[C@H](C)[C@@H](CN(C)C(=O)Cc2ccccc2)OCCCC[C@H](C)O3)cc1	5.5	28.3[16.7 µM]
O=C(C[C@@H]1C=C[C@@H](NC(=O)Nc2ccc3c(c2)OCO3)[C@@H](CO)O1)NCCCN1CCOCC1	-12.4	-5.8[16.7 µM]
COc1ccc(S(=O)(=O)Nc2ccc3c(c2)C(=O)N([C@@H](C)CO)C[C@@H](C)[C@@H](CN(C)Cc2ccc(C(=O)O)cc2)O3)cc1	-14.0	5.0[16.7 µM]
Cc1ccccc1-c1cnc2c(c1)C(=O)N([C@@H](C)CO)C[C@H](C)[C@H](CN(C)C(=O)c1cccnc1)O2	-3.9	-34.2[16.7 µM]
COc1ccc(NC(=O)N(C)C[C@H]2Oc3ccc(NC(=O)Nc4ccc(C(F)(F)F)cc4)cc3CC(=O)N([C@H](C)CO)C[C@@H]2C)cc1	-8.6	-51.9[16.7 µM]
CC(C)CC#Cc1ccc2c(c1)O[C@H](CN(C)C(=O)C1CCCCC1)[C@@H](C)CN([C@H](C)CO)S2(=O)=O	-21.0	-0.8[16.7 µM]
CC(C)CC#Cc1cnc2c(c1)C(=O)N([C@@H](C)CO)C[C@H](C)[C@@H](CN(C)C(=O)c1cnccn1)O2	5.0	8.9[16.7 µM]
C=CCNC(=O)[C@@H]1[C@H]2C(=O)O[C@H](c3ccccc3)[C@H](c3ccccc3)N2[C@H](c2ccccc2OCCO)[C@@]12C(=O)N(C(=O)OCCOC)c1ccc(C#CC3=CCCCC3)cc12	-17.4	-2.9[16.7 µM]
C[C@@H]1CN([C@H](C)CO)C(=O)c2cc(NS(=O)(=O)c3ccc(F)cc3)ccc2O[C@H]1CN(C)S(C)(=O)=O	-4.8	19.6[16.7 µM]
COc1ccc(NC(=O)N(C)C[C@@H]2Oc3ncc(C#Cc4ccc(C(F)(F)F)cc4)cc3C(=O)N([C@H](C)CO)C[C@@H]2C)cc1	-10.3	?
O=S(=O)(N[C@@H]1CC[C@H](CCn2cc(-c3ccccn3)nn2)O[C@@H]1CO)c1cccc(F)c1	3.3	1.5[16.7 µM]
COCC(=O)Nc1ccc2c(c1)OC[C@H](C)N(CCc1ccccc1)C[C@H](C)[C@H](OC)CN(C)C2=O	6.2	0.2[16.7 µM]
O=C(Nc1ccc(Cl)cc1)N[C@H]1CC[C@@H](CCn2cc(C3(O)CCCC3)nn2)O[C@H]1CO	-9.9	2.2[16.7 µM]
CCC(=O)N(C)C[C@@H]1Oc2cc(C#C[C@@H](C)O)ccc2S(=O)(=O)N([C@@H](C)CO)C[C@H]1C	10.0	-40.3[16.7 µM]
C[C@@H]1CN([C@H](C)CO)C(=O)c2cc(C#C[C@@H](C)O)cnc2O[C@@H]1CN(C)C(=O)c1ccccc1	-9.3	4.0[16.7 µM]
C[C@@H]1CN([C@@H](C)CO)S(=O)(=O)c2ccc(C#C[C@@H](C)O)cc2O[C@@H]1CN(C)C(=O)c1ccncc1	15.0	-27.4[16.7 µM]
COCCNC(=O)C[C@H]1C=C[C@H](NC(=O)NC2CCCCC2)[C@H](CO)O1	1.9	-1.0[16.7 µM]
C[C@@H]1CN([C@H](C)CO)C(=O)Cc2cc(NC(=O)Nc3ccc(C(F)(F)F)cc3)ccc2O[C@H]1CN(C)Cc1ccc(Cl)c(Cl)c1	-10.0	37.2[16.7 µM]
C[C@@H]1CCCCO[C@H](CN(C)S(=O)(=O)c2ccc(F)cc2)[C@H](C)CN([C@H](C)CO)C(=O)c2cc(NC(=O)CCC(F)(F)F)ccc2O1	15.8	11.0[16.7 µM]
COc1ccc(C#Cc2ccc3c(c2)O[C@H](CN(C)C(C)=O)[C@H](C)CN([C@H](C)CO)S3(=O)=O)cc1	29.7	13.2[16.7 µM]
C[C@@H]1CN([C@@H](C)CO)C(=O)Cc2cc(NC(=O)CCC(F)(F)F)ccc2O[C@H]1CN(C)S(=O)(=O)c1ccc(F)cc1	5.2	-32.8[16.7 µM]
COC(=O)C[C@@H]1CC[C@@H]2[C@H](COc3ccc(NS(=O)(=O)c4cccc(F)c4)cc3C(=O)N2C)O1	13.2	0.4[16.7 µM]
CNC(=O)C[C@@H]1CC[C@H]2[C@H](COc3ccc(NC(=O)NC(C)C)cc3C(=O)N2C)O1	24.3	-16.9[16.7 µM]
C[C@H]1CN([C@@H](C)CO)C(=O)c2cc(NC(=O)Cc3ccccc3)ccc2O[C@@H]1CN(C)C(=O)NC1CCCCC1	-10.6	4.2[16.7 µM]
COc1ccc(CN(C)C[C@@H]2Oc3ccc(NS(=O)(=O)c4ccc(OC)cc4)cc3CC(=O)N([C@H](C)CO)C[C@@H]2C)cc1	-6.7	20.2[16.7 µM]
COc1ccc(-c2cn(CC[C@@H]3CC[C@@H](NC(=O)c4cnccn4)[C@@H](CO)O3)nn2)cc1	-1.5	-0.2[16.7 µM]
O=S(=O)(NCC[C@@H]1CC[C@@H](NS(=O)(=O)c2ccccc2Cl)[C@@H](CO)O1)c1ccc(F)cc1	5.4	0.6[16.7 µM]
Cc1noc(C)c1NC(=O)Nc1ccc2c(c1)C(=O)N([C@@H](C)CO)C[C@@H](C)[C@H](CN(C)S(=O)(=O)c1cn(C)cn1)OCCCC[C@H](C)O2	-1.2	15.7[16.7 µM]
COc1ccccc1NC(=O)N[C@@H]1C=C[C@@H](CC(=O)NCc2ccc(Cl)c(Cl)c2)O[C@H]1CO	-2.3	-8.0[16.7 µM]
C[C@@H]1CN([C@@H](C)CO)C(=O)Cc2cc(NC(=O)CCCCCC(=O)Nc3ccccc3N)ccc2O[C@@H]1CN(C)Cc1ccncc1	2.8	-6.3[16.7 µM]
Cc1ccc(S(=O)(=O)N(C)C[C@H]2Oc3ccc(NC(=O)CCCCCC(=O)Nc4ccccc4N)cc3CC(=O)N([C@H](C)CO)C[C@H]2C)cc1	5.2	29.6[16.7 µM]
Cc1noc(C)c1NC(=O)N(C)C[C@H]1Oc2ccc(NS(=O)(=O)c3ccccc3)cc2C(=O)N([C@@H](C)CO)C[C@H]1C	-28.4	-3.0[16.7 µM]
COCC(=O)N[C@@H]1CC[C@H](CC(=O)N2CCCCC2)O[C@@H]1CO	3.0	0.3[16.7 µM]
C[C@H](CO)N1C[C@H](C)[C@H](CN(C)C(=O)Nc2ccccc2)Oc2ccc(NC(=O)Cn3cnnn3)cc2C1=O	-0.9	4.3[16.7 µM]
O=C(Cc1ccccn1)NCC[C@H]1CC[C@H](NS(=O)(=O)c2ccccc2)[C@H](CO)O1	24.6	7.2[16.7 µM]
O=C(NCC[C@H]1CC[C@@H](NC(=O)C2CCCCC2)[C@H](CO)O1)c1cc(Cl)cc(Cl)c1	5.5	-6.0[16.7 µM]
CC(C)NC(=O)Nc1ccc2c(c1)C(=O)N([C@H](C)CO)C[C@@H](C)[C@H](CN(C)Cc1ccc(Cl)c(Cl)c1)O2	14.6	-5.6[16.7 µM]
Cc1ccc(S(=O)(=O)Nc2ccc3c(c2)C(=O)N([C@@H](C)CO)C[C@@H](C)[C@H](CN(C)C(=O)Nc2ccc(F)cc2)OCCCC[C@@H](C)O3)cc1	7.1	-1.4[16.7 µM]
Cn1cnc(S(=O)(=O)N[C@@H]2CC[C@@H](CC(=O)Nc3ccccc3)O[C@@H]2CO)c1	-5.9	-14.5[16.7 µM]
O=C(Nc1cccc(Cl)c1)N[C@@H]1CC[C@H](CCNC(=O)C2CC2)O[C@H]1CO	6.6	7.7[16.7 µM]
C[C@H](O)C#Cc1ccc2c(c1)O[C@@H](CN(C)C(=O)C1CCC1)[C@@H](C)CN([C@H](C)CO)S2(=O)=O	29.1	-18.3[16.7 µM]
CN1C(=O)c2cc(NC(=O)Nc3ccccc3)ccc2OC[C@@H]2O[C@H](CC(=O)NC3CCC3)CC[C@H]21	15.5	9.1[16.7 µM]
C[C@@H]1CCCCO[C@H](CN(C)Cc2ccc(C(F)(F)F)cc2)[C@@H](C)CN([C@H](C)CO)C(=O)c2cc(NC(=O)c3ccncc3)ccc2O1	-2.8	3.1[16.7 µM]
COc1ccc(NC(=O)Nc2ccc3c(c2)C(=O)N([C@H](C)CO)C[C@H](C)[C@@H](CN(C)S(=O)(=O)c2ccc(C)cc2)OCCCC[C@@H](C)O3)cc1	-30.4	7.0[16.7 µM]
CCCc1cn(CC[C@@H]2CC[C@H](NC(=O)C3CCC3)[C@H](CO)O2)nn1	-2.0	6.3[16.7 µM]
COc1cccc(S(=O)(=O)N[C@@H]2CC[C@@H](CC(=O)NC3CCC3)O[C@@H]2CO)c1	-5.9	3.7[16.7 µM]

Sorted by SMILES length (smallest number first): six of the compounds above
SMILES	Yeast UUG start	HIV Env fusion
COCC(=O)N1[C@H](C#N)[C@@H](c2ccc(-c3cccc(F)c3)cc2)[C@@H]1CO	27.1	6.1[16.7 µM]
Cn1cnc(S(=O)(=O)N[C@@H]2CC[C@@H](CC(=O)Nc3ccccc3)O[C@@H]2CO)c1	-5.9	-14.5[16.7 µM]
CNC(=O)C[C@@H]1CC[C@H]2[C@H](COc3ccc(NC(=O)NC(C)C)cc3C(=O)N2C)O1	24.3	-16.9[16.7 µM]
COc1ccccc1NC(=O)N[C@@H]1C=C[C@@H](CC(=O)NCc2ccc(Cl)c(Cl)c2)O[C@H]1CO	-2.3	-8.0[16.7 µM]
C[C@@H]1CN([C@H](C)CO)C(=O)c2cc(C#C[C@@H](C)O)cnc2O[C@@H]1CN(C)C(=O)c1ccccc1	-9.3	4.0[16.7 µM]
COc1ccc(NC(=O)N(C)C[C@H]2Oc3ccc(NC(=O)Nc4ccc(C(F)(F)F)cc4)cc3CC(=O)N([C@H](C)CO)C[C@@H]2C)cc1	-8.6	-51.9[16.7 µM]

Continued.
SMILES	Yeast UUG start	HIV Env fusion
COc1cccc(S(=O)(=O)Nc2ccc3c(c2)[C@H]2C[C@H](CC(=O)O)O[C@@H](CO)[C@H]2O3)c1	-10.3	1.5[16.7 µM]
C[C@H]1CN([C@@H](C)CO)C(=O)c2cc(-c3ccncc3)cnc2O[C@@H]1CN(C)C(=O)CN1CCOCC1	-6.0	0.1[16.7 µM]
COc1cccc(C#Cc2ccc3c(c2)O[C@@H](CN(C)C(C)=O)[C@H](C)CN([C@H](C)CO)S3(=O)=O)c1	-0.5	-4.5[16.7 µM]
C[C@@H]1CN([C@H](C)CO)C(=O)c2cc(NC(=O)NC3CCCCC3)ccc2O[C@H]1CN(C)Cc1ccc(Cl)c(Cl)c1	0.7	10.7[16.7 µM]
CCC(=O)N1C[C@@H](O)COC[C@H]2O[C@H](CC(=O)NCc3ccc(Oc4ccccc4)cc3)CC[C@@H]21	13.3	?
C[C@H]1CN([C@@H](C)CO)C(=O)c2cc(C3=CCCC3)cnc2O[C@@H]1CN(C)C(=O)c1ccc(F)cc1	4.6	-36.4[16.7 µM]
C[C@@H]1CCCCO[C@@H](CN(C)Cc2ccccc2)[C@H](C)CN([C@@H](C)CO)C(=O)c2cc(NC(=O)Nc3cccc4ccccc34)ccc2O1	3.9	33.3[16.7 µM]
C[C@@H]1CN([C@H](C)CO)C(=O)c2cc(NC(=O)Cc3ccccc3)ccc2O[C@@H]1CN(C)C(=O)Nc1ccc2c(c1)OCO2	0.1	-10.6[16.7 µM]
C[C@@H]1CCCCO[C@H](CN(C)Cc2ccncc2)[C@@H](C)CN([C@@H](C)CO)C(=O)c2cc(NS(=O)(=O)c3ccc(F)cc3)ccc2O1	13.2	-62.6[16.7 µM]
O=C(O)C[C@H]1C=C[C@H](NC(=O)Nc2cc(F)ccc2F)[C@H](CO)O1	-10.5	-17.4[16.7 µM]
C[C@H]1CN([C@@H](C)CO)C(=O)Cc2cc(NC(=O)CCCCCC(=O)Nc3ccccc3N)ccc2O[C@@H]1CN(C)Cc1ccccc1	2.6	-4.0[16.7 µM]
C[C@H](CO)N1C[C@H](C)[C@H](CN(C)Cc2ccc(C(F)(F)F)cc2)Oc2ccc(NC(=O)Nc3ccccc3)cc2CC1=O	3.6	-3.3[16.7 µM]
C[C@@H]1CN([C@H](C)CO)C(=O)Cc2cc(NC(=O)c3ccncc3)ccc2O[C@H]1CN(C)Cc1ccc(C(F)(F)F)cc1	7.4	36.4[16.7 µM]
CCCC#Cc1ccc2c(c1)O[C@H](CN(C)C(=O)NC(C)C)[C@H](C)CN([C@H](C)CO)S2(=O)=O	-3.7	-0.2[16.7 µM]
COc1ccc(NC(=O)N(C)C[C@@H]2Oc3ccc(NS(=O)(=O)c4cccs4)cc3CC(=O)N([C@H](C)CO)C[C@H]2C)cc1	-3.4	3.8[16.7 µM]
C[C@@H]1CN([C@@H](C)CO)C(=O)c2cccc(NC(=O)c3ccc(-c4nccs4)cc3)c2O[C@H]1CN(C)CC1CC1	12.5	57.3*[16.7 µM]
O=C(C[C@H]1C=C[C@H](NC(=O)Nc2ccccc2)[C@H](CO)O1)NCc1ccccn1	-10.1	11.1[16.7 µM]
COc1ccc(S(=O)(=O)N(C)C[C@H]2OCCCC[C@@H](C)Oc3ccc(NC(=O)CCCN(C)C)cc3C(=O)N([C@H](C)CO)C[C@@H]2C)cc1	18.1	-18.3[16.7 µM]
C[C@@H]1CN([C@H](C)CO)C(=O)c2cc(C3=CCCC3)cnc2O[C@@H]1CN(C)C(=O)CN1CCOCC1	10.1	11.6[16.7 µM]
C[C@H](CO)N1C[C@H](C)[C@@H](CN(C)C(=O)Nc2ccc(F)cc2)OCCCC[C@H](C)Oc2ccc(NS(=O)(=O)c3ccc(F)cc3)cc2C1=O	-9.2	-144.1[16.7 µM]
Cc1ccc(S(=O)(=O)N(C)C[C@@H]2Oc3ncc(C#CC4(O)CCCC4)cc3C(=O)N([C@@H](C)CO)C[C@H]2C)cc1	26.7	0.8[16.7 µM]
